StopGo reporter: lowers the luciferase signal of an FMDV 2A StopGo reporter | human cells with a luciferase reporter of 2A StopGo recoding; control for the full effect not named in the record | Potency, µM (series often up to 57.9 µM), inactives show at the top dose signal change, negative = less light | hit rate 1.2% among 410,000; active = well fitted falling curve with a large enough effect; inconclusive = small, poorly fitted or top-dose-only effect; inactive = no such curve, though single readings can be large or run the other way; tested in HEK293T cells; also: nearly all actives have a fitted effect of over 45% in size; luciferase light after 4 h
RE007 growth inh: less growth of the S. pombe RE007 Vpr strain. S. pombe RE007 Vpr strain, BacTiter-Glo ATP luminescence, 24 h; control for the full effect not named in the record. Potency, µM (top dose mostly 92.2 µM), inactives show at the top dose activity change, negative = less growth. hit rate 0.21% among 360,000. AID 651644; active = well fitted falling curve with a large enough effect; inconclusive = small, poorly fitted or top-dose-only effect; inactive = no such curve, though single readings can be large or run the other way;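 also: nearly all actives have a fitted effect of over 50% in size; the assay follows cell death caused by Vpr and the record does not say whether a fall means rescue or toxicity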
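Fission yeast strain RE007, carrying one chromosomally integrated HIV-1 vpr copy, was seeded at OD 0.01 in PMG+AL medium with 23 nL pinned compound. After 24 h at 30 °C and 99% humidity, viability was read by BacTiter-Glo luminescence.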
Active calls of the source: *; ? = inconclusive; [ ] = remark or other dose. % is scaled to controls: 0 for no effect and ±100 for the full control effect; potency is read from the fitted curve at half-maximal effect. Not all compounds are listed; the hit share may differ from the screen's.

SMILES	StopGo reporter	RE007 growth inh
CC(=O)NCCNc1nc2cc(-c3ccc4c(ccn4C)c3)sc2c(=O)n1C	6%	3%
Cc1cc2c(cc1C)NC(=O)C(C)CN2 (stereo not drawn)	44%[activator]	-24%
CC(=O)Nc1cc(-c2cccc(C(=O)NCCN(C)C)c2)cn2c(-c3ccccc3)cnc12	7%	-5%
Cc1cscc1-c1cc2nc(NCCCN(C)C)n(C)c(=O)c2s1	15%	8%
O=C(O)Cn1c2ccccc2c2nc3ccccc3nc21	72%[activator]	-4%
COc1cccc(CNC(=S)Nc2ccc3c(c2)c(=O)n(C)n3Cc2csc(C)n2)c1	4%	9%
C[C@@H]1Cn2cnc(C(=O)Nc3cccc(Cl)c3)c2C(=O)N1	-30%	-20%
CC(C)(C)NC(=O)C1c2ccccc2OCC(=O)N1Cc1ccccc1 (stereo not drawn)	0%	7%
O=C(NCCN1CCNCC1)c1ccccc1O	-13%	-11%
COc1ccc(CNC(=O)c2ccc(Cl)c(S(=O)(=O)N3CCCCCC3)c2)cc1	-23%	8%

Shown with bars between the fields: entries from further up.
molecule | StopGo reporter | RE007 growth inh
Cc1cscc1-c1cc2nc(NCCCN(C)C)n(C)c(=O)c2s1 | 15% | 8%
O=C(O)Cn1c2ccccc2c2nc3ccccc3nc21 | 72%[activator] | -4%
COc1cccc(CNC(=S)Nc2ccc3c(c2)c(=O)n(C)n3Cc2csc(C)n2)c1 | 4% | 9%

The list goes on.
SMILES	StopGo reporter	RE007 growth inh
CC(=O)Nc1cccc(-c2cc3c(c4c2ccn4C)C2CCC3O2)c1 (stereo not drawn)	-19%	4%
CC(=O)N1CCc2cc(S(=O)(=O)NC(C(=O)N3CCN(c4ccccc4F)CC3)C(C)C)ccc21 (stereo not drawn)	-17%	-15%
O=C(C1CC=CCC1)N1CCCCCC1 (stereo not drawn)	-22%	0%
O=C(NCc1ccncc1)C(=O)NCC1OCCN1S(=O)(=O)c1ccccc1 (stereo not drawn)	1%	7%
CNc1cncc(-c2cccc(C(=O)N3CCOCC3)c2)n1	0%	-1%[18.4 µM]
Cc1cccc(C)c1NC(=O)c1csc(COCCO)n1	-12%	-8%[18.4 µM]
COc1ccccc1CC1(C)C(=O)Nc2c(Cl)cccc21 (stereo not drawn)	-20%	1%
CCCCN1C(=O)C(CC(=O)NCCCN(C)C)CC(C(=O)N(C)C)=C1C (stereo not drawn)	-22%	-17%
O=C1NC[C@@H](CCCCN2C[C@H](Cc3ccc(O)cc3)N(CC3CCCCC3)C(=O)C2=O)N(CCC2CCCCC2)C1=O	-10%	4%
C[C@H]1O[C@H](C2CCCC2)CC2=C1C(=O)OC(C)(C)O2	-22%	-12%

Quoted at random: 6 entries already listed, in no set order.
SMILES	StopGo reporter	RE007 growth inh
CC(=O)Nc1cc(-c2cccc(C(=O)NCCN(C)C)c2)cn2c(-c3ccccc3)cnc12	7%	-5%
CC(C)(C)NC(=O)C1c2ccccc2OCC(=O)N1Cc1ccccc1 (stereo not drawn)	0%	7%
Cc1cccc(C)c1NC(=O)c1csc(COCCO)n1	-12%	-8%[18.4 µM]
CC(=O)N1CCc2cc(S(=O)(=O)NC(C(=O)N3CCN(c4ccccc4F)CC3)C(C)C)ccc21 (stereo not drawn)	-17%	-15%
O=C(NCc1ccncc1)C(=O)NCC1OCCN1S(=O)(=O)c1ccccc1 (stereo not drawn)	1%	7%
CC(=O)Nc1cccc(-c2cc3c(c4c2ccn4C)C2CCC3O2)c1 (stereo not drawn)	-19%	4%

Later entries
SMILES	StopGo reporter	RE007 growth inh
COc1cc2nnn(-c3ccncc3)c2cc1OC	-7%	0%
CCCS(=O)(=O)NC(=O)C1(C)CCN(C(=O)Cc2cccc(OC)c2)C1 (stereo not drawn)	-16%	8%
C[C@H](CO)N1C[C@H](C)[C@H](CN(C)C(=O)c2ccc3ccn(C)c3c2)OCc2cnnn2CCCC1=O	-4%	-4%
Cc1noc(C)c1NC(=O)N(C)C[C@H]1OCCCC[C@@H](C)Oc2ccc(NC(=O)c3ccccc3)cc2C(=O)N([C@H](C)CO)C[C@@H]1C	-5%	11%
O=C(NCCc1c[nH]c2ccccc12)OC1CC2CC1[C@H]1CCCCN1C2=O (stereo partly drawn)	-16%	5%
COc1ccc(CN2C[C@@H](CO)O[C@@H](n3cnc4c(NC5CC5)ncnc43)C2)cc1	-15%	7%
O=C(Nc1c(-c2ccc(Cl)cc2)[nH][nH]c1=O)c1ccccn1	0%	30%
COc1ccc(CCNC(=O)C2CC3Cn4c(nc5ccccc54)C3N2c2ccccc2)cc1 (stereo not drawn)	-18%	0%
CNc1cnc(-c2ccccc2OC)cn1	26%	-11%
CC(C)CC(N)c1csc(NC(=O)Nc2ccccc2C(C)C)n1 (stereo not drawn)	-13%	6%
CC(=O)Nc1cc(-c2ccccc2)cn2c(-c3ccc(F)cc3)cnc12	-12%	-3%[18.4 µM]
COc1ccc(-c2c(C(=O)c3ccccc3)[nH]c(N)c2C(=O)c2ccc(Br)cc2)cc1OC	-26%	0%
COc1ccc(-c2c(N)cnc(C(=O)O)c2C)c(OCc2ccccc2)c1OC	0%	4%
CC(C)CNc1ncnc2c1ncn2[C@H]1CN(Cc2cccs2)C[C@@H](CO)O1	0%	-18%
COC(=O)[C@]12CCCCC=C1N(Cc1ccccc1)C(=O)[C@H](CC(=O)NCc1cccc3ccccc13)C2	-17%	-7%
Cc1ccc([C@@H]2C[C@H]3[C@@H](CN2S(=O)(=O)c2ccc(C)cc2)C(=O)C[C@@H](c2ccccc2F)N3S(=O)(=O)c2ccc(C)cc2)cc1	-9%	-15%
O=C(Nc1ccc(C(=O)N2CCCC2)cc1)c1cc(F)c(F)cc1Cl	15%	-2%
Cc1cc2nc(C3CCCCC3)c(Cc3ccccc3C(F)(F)F)n2c(C)c1Br	-25%	?
COc1ccc(CC(N)c2csc(Nc3nccc(C(F)(F)F)n3)n2)cc1 (stereo not drawn)	-17%	7%[18.4 µM]
c1ccc(CNc2nc(Oc3ccncc3)c3sccc3n2)cc1	-7%	4%
COc1ccc(C(CNC(=O)CSc2ccccc2)N2CCOCC2)cc1 (stereo not drawn)	-15%	1%
CCOC1=C2CN(S(=O)(=O)c3ccc(C)cc3)[C@@H](c3cccs3)C[C@H]2[C@H]2C(=O)N(c3ccccc3)C(=O)[C@H]2C1	-9%	-7%
Cn1cc([C@]2(O)C(=O)Nc3c(F)cccc32)c2ccccc21	-24%	-10%
CC(=O)[C@H]1CC[C@@H](c2ccccc2)N(S(=O)(=O)c2ccc(C)cc2)C1	-3%	-10%
C[C@H](NC(=O)c1nc[nH]c1C(=O)NC[C@@H](C)O)c1ccccc1	-1%	-22%
COc1cccc(/C=N/Nc2ccc(Cl)nn2)c1OC	0%	-1%
C[C@H](c1ccccc1)N1C[C@H](COCc2ccccc2)Oc2cc(N3CC[C@@H](N(C)C)C3)ccc2S1(=O)=O	10%	-11%
COc1cccc(COC(=O)Nc2ccccc2)c1OC	36%[activator]	1%[18.4 µM]
CCNC(=O)C1(C)CCCN1C(=O)c1cc(C)on1 (stereo not drawn)	-12%	0%[18.4 µM]
O=C(NNC(=O)c1csc(-c2cccs2)n1)c1ccc(Cl)cc1	10%	-26%

Ordered by molar mass (smallest number first): part of the list above
SMILES	StopGo reporter	RE007 growth inh
CCNC(=O)C1(C)CCCN1C(=O)c1cc(C)on1 (stereo not drawn)	-12%	0%[18.4 µM]
C[C@H](NC(=O)c1nc[nH]c1C(=O)NC[C@@H](C)O)c1ccccc1	-1%	-22%
O=C(NNC(=O)c1csc(-c2cccs2)n1)c1ccc(Cl)cc1	10%	-26%

Following part:
SMILES	StopGo reporter	RE007 growth inh
CCN(CC)C(=O)C1=C(C)N(Cc2ccccc2)C(=O)C(CC(=O)NC2CC2)C1 (stereo not drawn)	?	-1%
N#Cc1ccccc1OCC(=O)NC1CCCCCC1	0%	11%
CN1OC[C@@H]2CN(C(=O)CCc3ccccc3)[C@H](c3cccc(N4CCOCC4)c3)C[C@@H]21	-1%	3%
CCN(CC)C(=O)C1=C(C)N(CCC2=CCCCC2)C(=O)C(CC(=O)NCCCCc2ccccc2)C1 (stereo not drawn)	-17%	7%
CCNC(=O)C1(C)CCCN(C(=O)C2(c3ccc(Cl)cc3)CCCC2)C1 (stereo not drawn)	-16%	-17%
CCCc1nc2c(C)cc(Br)cn2c1Cc1cccc(F)c1	21%	-14%
O=C1NC[C@H](CCCCN2C[C@H](Cc3ccc(O)cc3)N(CC3CCCCC3)C(=O)C2=O)N(CC2CCCCC2)C1=O	-15%	0%
CCN(CC)S(=O)(=O)c1ccc(N2CCCC2)c(NC(=O)CSCc2c(C)noc2C)c1	-22%	-9%
COc1ccc(C(C)(O)c2nc(-c3cccc(F)c3)cs2)cc1 (stereo not drawn)	-19%	2%
Cc1cc(C)n2[nH]c(=O)cc2n1	0%	16%
O=S1(=O)CC(N2CCCCC2)CN1Cc1cn(Cc2ccc(Cl)cc2)nn1 (stereo not drawn)	-8%	3%
CN1OC[C@@H]2CN(S(=O)(=O)c3cccc4ccccc34)[C@H](c3ccc(-c4cccnc4)cc3)C[C@@H]21	-13%	2%
COc1cccc(Cn2cnc(-c3ccccc3OC)c2-c2ccco2)c1	?	-20%
NC(c1ccccc1)c1csc(Nc2ccccn2)n1 (stereo not drawn)	16%	-15%
COCCN(C(=O)CSc1nnc(-c2ccc(F)cc2)n1N)c1c(N)n(CC(C)C)c(=O)[nH]c1=O	-10%	10%
O=C1[C@H]2[C@@H](c3ccccc3)N[C@]3(CCCN(Cc4ccco4)C3=O)[C@H]2C(=O)N1Cc1ccccc1	-22%	-4%
CCOC(=O)CCCCCC(=O)Nc1ccc2c(c1)C(=O)N([C@@H](C)CO)C[C@@H](C)[C@H](CN(C)S(=O)(=O)c1cccs1)OCCCC[C@H](C)O2	-19%	0%
COc1ccc(C(NC(=O)C2CCN(CCCc3ccccc3)CC2)c2ccccn2)cc1 (stereo not drawn)	-2%	1%
O=C(NCc1ccccc1)C1C(=O)Nc2ccccc2C(=O)N1c1ccc2c(c1)OCCO2 (stereo not drawn)	18%	-3%
CCOC(=O)C1CCCN(C(=O)c2cc(C)n(C(C)(C)C)n2)CC1 (stereo not drawn)	0%	-1%
CC1(C(=O)NS(=O)(=O)c2ccccc2)CCN1C(=O)Cc1ccc(-c2ccccc2)cc1 (stereo not drawn)	-14%	-13%
CC(=O)C1=CCC(c2ccccc2)N(S(=O)(=O)c2cccc(C)c2)C1 (stereo not drawn)	-11%	8%
COC(=O)C1(C)NC(c2cccc(C)c2)C2C(=O)N(c3ccccc3)C(=O)C21 (stereo not drawn)	2%	7%
O=C1NCCCN1C1OC(CO)C(O)C1O (stereo not drawn)	-13%	8%
S=c1[nH]nc2sc3ccccc3n12	-2%	-5%
COc1ccc(Cl)cc1Cn1c(C)c(C(=O)NCc2ccccc2C(F)(F)F)sc1=O	-8%	6%[18.4 µM]
CC(C)(C)CCN1CCC(CN2CCNC2=S)CC1	-12%	2%
O=C(NCc1ccccc1)c1cc(C2COCCN2C(=O)CCc2ccccc2)on1 (stereo not drawn)	1%	-11%[18.4 µM]
COCC(=O)N(C)[C@H]1C[C@H]2c3[nH]c4ccccc4c3CCN2C(=O)[C@H]1[C@H](C)O	-19%	-10%
CCCNC(=O)C1(C)CCN(C(=O)c2cc(C(C)(C)C)nn2C)C1 (stereo not drawn)	-20%	23%
CCOc1ccc(NC(=O)c2ccc(F)cc2F)cc1	68%[activator]	-6%
c1csc(CNc2nc(NCC3CCCCC3)c3sccc3n2)c1	?	0%
CCC(C)N1CCC2(CC1)N=c1c(c3c4c5c(C)c(O)c3c(O)c1=NC(=O)C(C)=CC=C[C@H](C)[C@H](O)[C@@H](C)[C@@H](O)[C@@H](C)[C@H](OC(C)=O)[C@H](C)[C@@H](OC)C=CO[C@@](C)(O5)C4=O)N2 (stereo partly drawn)	-6%	-13%[18.4 µM]
O=C1[C@H](Cc2ccccc2)NCCCC[C@H](c2ccco2)N1Cc1ccccc1	-28%	-2%
C[C@H]1CN([C@@H](C)CO)C(=O)c2cc(-c3ccccc3F)cnc2O[C@H]1CN(C)C(=O)C1CCOCC1	-4%	-7%
CSc1ccc(C(O)c2ncc(-c3ccccc3F)[nH]2)cc1 (stereo not drawn)	56%[activator]	-21%
C=CCN1c2ccccc2Sc2cnccc21	?	-18%
CN(Cc1ccc(C(C)(C)C)cc1)C(=O)Cc1ccc(S(=O)(=O)N2CCOCC2)s1	?	1%
CCOC(=O)C1(C)CCCCN1C(=O)c1ccnc(Cl)c1 (stereo not drawn)	-13%	14%
CC1(C(=O)NS(=O)(=O)c2cccc(F)c2)CCN1C(=O)Cc1ccccc1Cl (stereo not drawn)	-4%	2%[18.4 µM]
Cc1ccc(S(=O)(=O)N2C[C@@H](C)[C@]3(C2)[C@H](O)[C@H](OC(=O)Nc2c(C)noc2C)C[C@H]2C(=O)N(c4ccccc4)C(=O)[C@H]23)cc1	0%	-5%
CCc1nc2c(OCc3ccc(Cl)cc3)cccn2c1N(C)C(=O)c1ccc(C)cc1	-20%	-26%
C=C[C@H]1CN2CC[C@H]1C[C@H]2[C@H](O)c1ccnc2ccccc12	-19%	-11%
CC1=C(C(=O)N2CCOCC2)CC(CC(=O)NC2CCCC2)C(=O)N1Cc1ccc(C(C)(C)C)cc1 (stereo not drawn)	-9%	10%
O=C(Cn1cnc2cc([N+](=O)[O-])ccc2c1=O)Nc1cccc(S(=O)(=O)N2CCCCC2)c1	?	0%
CC(C)C[C@@H](CN1CCC[C@H]1CN1C(=O)C(=O)NC[C@@H]1Cc1ccccc1)N1C[C@H](Cc2ccc(O)cc2)N(CC2CCCCCC2)C(=O)C1=O	-20%	7%
